Compound activity from PubChem.
GIV Gai3 FP: blocks GIV peptide binding to rat Galpha-i3. P08753. Galpha-i3/FITC-GIV peptide fluorescence polarization, 90 min; stronger effect = lower value; scaled: aluminum fluoride 0%, vehicle 100%. percent of control (FP), % (no concentration beside the values). 210,000 tested, 0.42% active;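 active means replicate mean at 85% of control or lower, very high polarization wells dropped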;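 further: wells of about 15 µL received 100 nL stock; the first replicate is given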
Target sequence (P08753 whole entry, looked up): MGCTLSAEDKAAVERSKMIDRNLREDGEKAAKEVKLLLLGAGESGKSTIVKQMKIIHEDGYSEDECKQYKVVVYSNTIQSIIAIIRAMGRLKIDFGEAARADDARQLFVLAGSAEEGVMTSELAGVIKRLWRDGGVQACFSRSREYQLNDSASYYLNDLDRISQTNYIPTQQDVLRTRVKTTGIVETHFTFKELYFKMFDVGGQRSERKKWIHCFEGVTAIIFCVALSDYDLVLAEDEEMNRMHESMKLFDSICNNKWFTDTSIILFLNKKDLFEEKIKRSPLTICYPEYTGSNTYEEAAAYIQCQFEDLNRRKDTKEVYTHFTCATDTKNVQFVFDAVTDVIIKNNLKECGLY
Sa growth 42C: inhibitors of Staphylococcus aureus growth at 42 °C; S. aureus RN4220 growth, OD600, 20 h; stronger effect = lower value; relative growth, % (test concentration not listed); 170,000 tested, 0.53% active;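 active means growth at 42 °C up to 50% and 20 or more points under that at 30 °C, or under 10% at both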;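 further: 300 nL library stock went into each well; scaled to the means of positive and negative controls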
HCMV UL50-53 inh: cytomegalovirus nuclear egress complex inhibition; HTRF UL50-UL53 interaction, normalized percent inhibition; inhibition, % (concentration not given with the values); 190,000 tested, 0.15% active; AID 1918969;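 active means both replicates at 50% or more, plus weaker picks with an unusually low signal ratio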;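 further: stock transfer was 100 nL into about 20 µL; 0% = negative control wells and 100% = wells with untagged competitor protein; inactives centre near -12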
Sa growth 42C second temp: also measured in Sa growth 42C; calls as there; relative growth, %; measured here: growth at 30 °C;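 optical density after 20 h as mean of two plates; 100% = untreated growth and lower means inhibition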
* marks the source's active call; other numbers are inactive results; nt = no result given; & = joins results of further samples. Compounds as they come; any-hit rate near 0.82%.

cpd	mol	GIV Gai3 FP	Sa growth 42C	Sa growth 42C second temp	HCMV UL50-53 inh
1	COC(=O)N1CCCc2cc(S(=O)(=O)NCc3ccccc3)ccc21	101	101	86	7
2	CCN(CC)CCNC(=O)C1CCCN(S(=O)(=O)c2ccc3c(ccn3CC)c2)C1 (configuration not stated)	109	nt	nt	-26
3	COc1ccc(C2=C(O)C(=O)N(CCc3ccccc3)C2c2ccc(Cl)cc2)cc1 (configuration not stated)	103	nt	nt	-35
4	COc1ccc(NC(=O)c2cccn2-c2cccnc2)cc1	108	nt	nt	-23
5	CC(=O)NC(=O)c1cc2c(ccc3ccccc32)oc1=Nc1ccc(C)cc1	98	78	77	nt
6	Cc1cccc(OCC(=O)NC(Cc2c[nH]c3ccccc23)C(=O)O)c1C (configuration not stated)	103	111	88	-12
7	COC(=O)c1sccc1NC(=O)c1ccc(Cl)s1	107	121	112	-2
8	CC(Oc1ccc2c(-c3ccccc3)cc(=O)oc2c1)C(=O)O (configuration not stated)	103	106	88	-62
9	CC(=O)Oc1ccc(/C=C2\N=C(c3cc([N+](=O)[O-])ccc3Cl)OC2=O)c(OC(C)=O)c1	106	nt	nt	-20
10	COC(=O)CCSc1nc2sc3c(c2c(=O)n1-c1ccc(OC)cc1)CC(C)(C)OC3	108	nt	nt	-9
11	CCCOc1ccc(C(=O)Nc2ccc(NC(=O)c3ccccc3)c(C)c2)cc1	103	96	81	-49
12	COc1ccc(-c2noc(N3CCC(C(=O)NCCN4CCc5ccccc5C4)CC3)n2)cc1	105	99	88	nt
13	Nc1c(-c2nc(-c3cccs3)no2)nnn1-c1ccc(Cl)cc1	102	96	93	nt
14	Cc1cc(C)cc(NC(=O)c2oc3ccc4c(c3c2C)C(=O)CC(C)(C)O4)c1	106	117	98	nt
15	CCC(C(=O)OC)n1cnc2c(nnn2Cc2ccccc2F)c1=O (configuration not stated)	97	81	87	nt
16	O=C(COCc1cc(-c2cccs2)on1)Nc1cc(C(F)(F)F)ccc1Cl	103	102	98	nt
17	COc1cc(/C=C2\N=C(c3ccc(C)c([N+](=O)[O-])c3)OC2=O)cc(Br)c1OC(C)=O	104	nt	nt	5
18	Cc1ccc2nc(NC(=O)CNc3ccc(F)cc3)sc2c1	nt	125	79	-7
19	CC(=O)c1ccc(N2CCN(S(=O)(=O)c3c(C)nc4sc(C)cn4c3=O)CC2)cc1	101	106	88	nt
20	CCc1ccc(-c2nc(CS(=O)CC(=O)NCCc3ccc(C)cc3)c(C)o2)cc1 (configuration not stated)	106	106	75	nt
21	O=C(O)Cc1nc2ccccc2[nH]1	105	121	91	nt
22	COc1ccc(NC(=O)n2ncc3ccccc32)c(OC)c1	102	nt	nt	-33
23	CC(C)c1ccc(S(=O)(=O)NCCn2c(-c3ccc(F)cc3)nc3cccnc32)cc1	110	nt	nt	-4
24	Cc1ccc2nc(N3CCCC3)nc(-c3ccccc3)c2c1	nt	82	94	9
25	Cn1cc(C2NC(=O)c3c(sc4c3CCCC4)N2)c2ccccc21 (configuration not stated)	103	76	65	nt
26	CSc1nc(C(=O)O)cc(=O)[nH]1	106	96	95	-2
27	COc1ccc(-n2c(=O)c3c4c(sc3n3c(SC(C)C)nnc23)COC(C(C)C)C4)cc1 (configuration not stated)	104	96	93	-13
28	O=C(NC1CC1)C1CCN(S(=O)(=O)N2CCCC2)CC1	102	111	92	7
29	CCc1nc2ccc(C(=O)NCc3ccccc3C)cc2nc1CC	99	123	90	nt
30	CC1(O)C2C3CC4C5C3C1C5C1(OCCO1)C42 (configuration not stated)	nt	93	98	-12
31	CCCn1c(=O)c2cc(Cl)ccc2n2c(=O)n(CC(=O)N3CCN(c4ccc(F)cc4)CC3)nc12	98	nt	nt	-13
32	CC(=O)NC1=NN(c2ccccc2)C(=O)C1	93	82	74	-20
33	CCc1c(C)nc2c(C#N)c[nH]n2c1=O	111	81	89	nt
34	COc1ccc(CNC(=O)c2ccc3c(c2)N(Cc2ccccc2)C(=O)c2ccccc2S3=O)cc1 (configuration not stated)	103	98	92	-16
35	CNC(=O)C1CCN(S(=O)(=O)c2ccccc2)CC1	100	113	89	-3
36	Cc1cc(Br)c(-n2cccc2)c(Br)c1Cl	102	78	79	-9
37	O=C(NCc1cccs1)C(NS(=O)(=O)c1cccc2nsnc12)c1ccccc1 (configuration not stated)	103	94	86	nt
38	CC(C)(C)n1ncc2c(=O)n(Cc3ccc(Cl)cc3)cnc21	101	92	89	nt
39	Cc1cccc(NC(=S)N(CCc2ccncc2)C2CCCCC2)c1	108	88	61	nt
40	CS(=O)(=O)c1nc2ccccc2s1	nt	106	102	6
41	COc1cc(C(=O)NC2CC2)ccc1OC(F)F	nt	107	97	9
42	COC(=O)CC1=CC(SCC(=O)NCC2CCCO2)=Nc2ccccc2N1 (configuration not stated)	111	nt	nt	1
43	COc1cc(CSc2ncc(CO)n2Cc2ccc(C)cc2)cc(OC)c1	102	107	89	nt
44	COc1ncnc2c1sc1nc3c(cc12)COC(C)(C)C3	107	99	94	-8
45	CCCc1oc2ccc(NS(=O)(=O)c3ccc(OC)cc3)cc2c1C(=O)OCC	98	98	83	nt
46	CCN(CC)C(=O)Cc1cccc(C)c1	107	109	97	22
47	CCOC(=O)/C(C#N)=C(/N)c1cc2cc(Br)cc(Br)c2oc1=O	nt	115	84	-20
48	COc1ccccc1NC(=O)CSc1c2c(nc3ccc(Cl)cc13)CCCC2	100	nt	nt	-11
49	CCOC(=O)c1oc2ccccc2c1COC(=O)c1cccc(S(=O)(=O)N(C)C)c1	nt	104	91	-19
50	COc1ccc(OC)c(S(=O)(=O)NCCn2c(-c3ccncc3)nc3cccnc32)c1	124	nt	nt	-23
51	CCCCc1cc2c(c(NC(=O)CC)n1)c(=O)oc1ccccc12	107	108	93	5
52	Cc1ccc(N2CC(C(=O)Nc3ccc(N(C)C)cc3)CC2=O)cc1Cl (configuration not stated)	109	121	86	-43
53	COc1ccc(OC)c(S(=O)(=O)N2CCN(c3cc(-c4cccc(C)c4)ncn3)CC2)c1	97	nt	nt	-16
54	CCC(=O)Nc1nnc(SCc2cc(=O)c(OC(=O)c3cccs3)co2)s1	98	92	80	-23
55	Cc1ccc2[nH]c(=O)c(N3CCOCC3)c(-c3ccccc3)c2c1	99	100	84	-20
56	CN1CCN(C(=O)CSc2cc(=O)n(C)c3ccccc23)CC1	103	87	91	-11

Other structures:
cpd	mol	GIV Gai3 FP	Sa growth 42C	Sa growth 42C second temp	HCMV UL50-53 inh
57	COc1ccccc1NC(=O)Cc1cn2ccsc2n1	nt	103	82	-33
58	N#CCCN(Cn1c2ccccc2c2ccccc21)c1ccccc1	106	109	96	nt
59	Cc1c(Cl)cccc1NC(=O)CCn1cnc2ccccc2c1=O	105	110	96	8
60	O=C(c1ccco1)N1CCC(c2nc3ccccc3s2)CC1	nt	95	92	-12
61	O=c1c(NC2CCCC2)c(-c2ccccc2)c1=O	104	nt	nt	-78
62	Cc1ccc2nc3ccc(N4CC(C)CC(C)C4)nn3c(=O)c2c1 (configuration not stated)	99	104	87	nt
63	O=C(O)CCN1C(=O)/C(=C/c2ccccn2)SC1=S	97	81	84	nt
64	COC(=O)c1c(C)[nH]c(C(=O)N2CCC(CC(=O)NC(C)CCc3ccccc3)CC2)c1C (configuration not stated)	108	nt	nt	-10
65	CCc1ccc(Sc2cc(C(=O)NCCCN3CCCC(C)C3)c3ccccc3n2)cc1 (configuration not stated)	101	100	83	nt
66	O=c1oc2c3ccccc3oc(=O)c2c2ccccc12	101	97	93	1
67	CN(C1=NC(=O)/C(=C\c2ccccc2Cl)S1)c1ccc(O)cc1	102	108	92	nt
68	COc1ccc(OCCC(=O)OCc2ccccc2)cc1	nt	110	83	-30
69	CCc1cc2c(=O)c(-c3nc4ccccc4n3C)c(C(C)C)oc2cc1O	101	89	81	-24
70	Cc1ccccc1NS(=O)(=O)c1ccc(N2CCCC2=O)cc1	98	103	53	-12
71	Fc1c(F)c(F)c(Sc2nnc(-c3cccs3)n2CC2CCCO2)c(F)c1F (configuration not stated)	nt	91	79	-30
72	Cc1ccc(-c2cnc3c(-c4ccc(Cl)cc4)cnn3c2N)cc1	99	nt	nt	-11

Entries 1 through 16 of the list above:
cpd	mol	GIV Gai3 FP	Sa growth 42C	Sa growth 42C second temp	HCMV UL50-53 inh
1	COC(=O)N1CCCc2cc(S(=O)(=O)NCc3ccccc3)ccc21	101	101	86	7
2	CCN(CC)CCNC(=O)C1CCCN(S(=O)(=O)c2ccc3c(ccn3CC)c2)C1 (configuration not stated)	109	nt	nt	-26
3	COc1ccc(C2=C(O)C(=O)N(CCc3ccccc3)C2c2ccc(Cl)cc2)cc1 (configuration not stated)	103	nt	nt	-35
4	COc1ccc(NC(=O)c2cccn2-c2cccnc2)cc1	108	nt	nt	-23
5	CC(=O)NC(=O)c1cc2c(ccc3ccccc32)oc1=Nc1ccc(C)cc1	98	78	77	nt
6	Cc1cccc(OCC(=O)NC(Cc2c[nH]c3ccccc23)C(=O)O)c1C (configuration not stated)	103	111	88	-12
7	COC(=O)c1sccc1NC(=O)c1ccc(Cl)s1	107	121	112	-2
8	CC(Oc1ccc2c(-c3ccccc3)cc(=O)oc2c1)C(=O)O (configuration not stated)	103	106	88	-62
9	CC(=O)Oc1ccc(/C=C2\N=C(c3cc([N+](=O)[O-])ccc3Cl)OC2=O)c(OC(C)=O)c1	106	nt	nt	-20
10	COC(=O)CCSc1nc2sc3c(c2c(=O)n1-c1ccc(OC)cc1)CC(C)(C)OC3	108	nt	nt	-9
11	CCCOc1ccc(C(=O)Nc2ccc(NC(=O)c3ccccc3)c(C)c2)cc1	103	96	81	-49
12	COc1ccc(-c2noc(N3CCC(C(=O)NCCN4CCc5ccccc5C4)CC3)n2)cc1	105	99	88	nt
13	Nc1c(-c2nc(-c3cccs3)no2)nnn1-c1ccc(Cl)cc1	102	96	93	nt
14	Cc1cc(C)cc(NC(=O)c2oc3ccc4c(c3c2C)C(=O)CC(C)(C)O4)c1	106	117	98	nt
15	CCC(C(=O)OC)n1cnc2c(nnn2Cc2ccccc2F)c1=O (configuration not stated)	97	81	87	nt
16	O=C(COCc1cc(-c2cccs2)on1)Nc1cc(C(F)(F)F)ccc1Cl	103	102	98	nt

Carrying on.
cpd	mol	GIV Gai3 FP	Sa growth 42C	Sa growth 42C second temp	HCMV UL50-53 inh
73	CCCNC(=O)NC1CCN(c2nc(C)cc(C)n2)CC1	100&106	99	90	-12&-17
74	Cc1cccc(-c2nc3nc(C)cc(NCc4ccccc4Cl)n3n2)c1	110	96	95	nt
75	Cc1csc(-n2[nH]c(C)c(CC(=O)Nc3cc(Cl)ccc3C)c2=O)n1	99	nt	nt	-6
76	COC(=O)c1cc(S(=O)(=O)N2CCC(Cc3ccccc3)CC2)oc1C	106	101	95	-18
77	Cc1nc(C)c(-c2nc(-c3cc4c(C)nn(-c5ccccc5)c4s3)no2)s1	128	nt	nt	-10
78	Cc1ccc(-n2[nH]c(C)c(C=Nc3ccc(C)cn3)c2=O)cc1	nt	107	87	-30
79	CC(N)c1ccc2c(c1)CCCC2 (configuration not stated)	105	106	62	-17
80	FC(F)(F)Oc1ccc(NCn2nnc3cc(Cl)ccc32)cc1	104	101	105	-8
81	Cn1cnnc1SCC(=O)n1c2ccccc2c2ccccc21	98	95	88	-16
82	CCOCCOC(=O)C1=C(C)NC2=C(C(=O)CC(c3ccc(OC)cc3)C2)C1c1ccccc1Cl (configuration not stated)	104	nt	nt	-40
83	O=C(COc1ncnc2ccccc12)c1ccc2c(c1)OCCO2	nt	100	96	-18
84	Cc1cccc(CNC(=O)c2ccc(Cn3c(=O)c4cccn4c4cccnc43)cc2)c1	107	98	86	nt
85	CCCOc1cccc(C(=O)N(Cc2ccc(C)o2)C2CCS(=O)(=O)C2)c1 (configuration not stated)	96	103	88	-1
86	O=c1c2ccccc2nc(SCc2cccc(F)c2)n1CC1CCCO1 (configuration not stated)	105	100	84	nt
87	Cc1ccc(-c2csc(C3=C(O)CN(CCCn4ccnc4)C3=N)n2)cc1	nt	126	102	-20
88	CNC(=S)c1sc2ccccc2c1C	101	87	77	-47
89	CC1(C)C(=O)N(c2ccccc2F)C(=O)c2ccccc21	nt	108	96	-11
90	COCCNC(=O)Cc1csc2nc(-c3ccc(Cl)cc3)cn12	106	109	91	-17
91	CCOCCC(=O)Nc1ccc(OC)cc1	102	103	102	-10
92	N/C(=N\C1=NC(C(F)(F)F)(C(F)(F)F)N=C(c2cccnc2)O1)Nc1ccccc1	97	81	93	nt
93	Cc1cc(C)cc(NC(=O)CSc2nc(-c3ccccc3)nn2C(=O)c2ccco2)c1	97	144	88	18
94	CCC(CC)C(=O)NC12CC3CC(CC(C3)C1)C2	105	119	89	-4
95	CC(c1ccccc1)n1c(-c2cccc(S(=O)(=O)N3CCOCC3)c2)n[nH]c1=S (configuration not stated)	nt	126	95	-30
96	CC(c1ccccc1)C(CC(=O)O)C(=O)NC1CCCCC1 (configuration not stated)	95	99	91	-19
97	CCOC(=O)c1ccc(N2C(=O)c3n[nH]c(C)c3C2c2ccc(C(C)C)cc2)cc1 (configuration not stated)	105	112	90	-26
98	COc1cccc(CNS(=O)(=O)c2cc3c(cc2C)n(C)c(=O)c(=O)n3C)c1	113	103	99	nt
99	COc1ccc(-c2cc3ccc(O)c(CN4CCCC4)c3oc2=O)cc1	140	76	100	nt
100	CSc1ncc(C(=O)N2CCN(c3cc(C)ccc3C)CC2)c(C)n1	106	100	96	nt
